Screens from PubChem.
Rango-impB inh: inhibitors of Rango-importin beta complex formation | Potency, µM (titrated, usually from 92.2 µM), for inactives: top-dose inhibition of complex formation | Q14974 | Rango CFP/YFP FRET sensor + importin beta, 45 min | AID 540263 | hit rate 0.031% among 340,000; active = rising FRET ratio curve, often small or poorly fitted; inconclusive = mostly compound fluorescence or quenching in the first reads; inactive = flat curves in all reads;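 also: potency is read from the fitted curve at half-maximal effect; 0% = DMSO wells and 100% = buffer wells lacking importin beta; nearly all actives have a fitted effect of over 15% in size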
Target sequence (Q14974 whole entry, looked up): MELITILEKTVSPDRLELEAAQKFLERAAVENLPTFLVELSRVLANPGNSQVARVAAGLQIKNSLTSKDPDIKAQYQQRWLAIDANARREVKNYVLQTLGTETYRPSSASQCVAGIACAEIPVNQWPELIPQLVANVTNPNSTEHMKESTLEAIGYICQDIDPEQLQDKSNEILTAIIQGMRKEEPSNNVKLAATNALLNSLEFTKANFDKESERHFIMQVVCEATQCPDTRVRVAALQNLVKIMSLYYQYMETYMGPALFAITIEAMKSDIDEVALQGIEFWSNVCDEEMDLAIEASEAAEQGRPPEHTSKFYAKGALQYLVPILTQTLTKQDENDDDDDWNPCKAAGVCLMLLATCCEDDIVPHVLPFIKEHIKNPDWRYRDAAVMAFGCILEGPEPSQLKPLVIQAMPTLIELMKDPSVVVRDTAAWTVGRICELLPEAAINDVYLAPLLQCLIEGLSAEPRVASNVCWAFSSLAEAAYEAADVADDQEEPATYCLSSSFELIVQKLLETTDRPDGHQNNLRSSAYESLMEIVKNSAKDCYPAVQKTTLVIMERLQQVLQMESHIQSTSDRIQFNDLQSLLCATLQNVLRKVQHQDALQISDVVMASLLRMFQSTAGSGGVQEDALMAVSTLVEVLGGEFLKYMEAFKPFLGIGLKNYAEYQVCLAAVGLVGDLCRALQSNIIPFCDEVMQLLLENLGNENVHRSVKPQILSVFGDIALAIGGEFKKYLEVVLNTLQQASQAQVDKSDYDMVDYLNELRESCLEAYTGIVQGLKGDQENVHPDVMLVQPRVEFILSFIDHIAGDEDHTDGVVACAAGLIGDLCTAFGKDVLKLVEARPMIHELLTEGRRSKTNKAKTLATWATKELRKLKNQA
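FRET biosensor (snurportin 1 IBB flanked by EYFP and cerulean), 50 nM, with compound 5 min, then 0.125 microM importin beta in PBS, 1 mM DTT, 0.02% Tween-20, 0.1% BSA. CFP/YFP ratio read after 45 min at room temperature; pre-read flags interference.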
miR-21 reporter: raises the signal of a miR-21 reporter | HeLa miR-21 FLuc reporter, luciferase, 48 h | Potency, µM (titrated, usually from 38.3 µM), inactives show at the top dose reporter change, positive = more light | 340,000 tested, under 10 active; active = well fitted rising curve with a large enough effect; inconclusive = small, poorly fitted or top-dose-only effect; inactive = no such curve, though single readings can be large or run the other way;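 also: % of control where 0% means no effect; miR-21 action dims this reporter so a rising signal means less miR-21 action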
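HeLa miR-21-FLuc reporter line, endogenous miR-21; 2000 cells/well in DMEM/10% FBS; compound titration up to ~40uM final, 48 h, 37 degree Celsius; luciferase detection reagent, 15 min lysis, CCD luminescence.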
GLA inh pH 4.5: inhibitors of human alpha-galactosidase A at pH 4.5; 230,000 tested, under 10 active; purified enzyme, 4-MU-alpha-Gal fluorescence, pH 4.5; activity change, negative = inhibition, % at 105 µM; P06280; inconclusive = small, poorly fitted or top-dose-only inhibition, or a rising curve; inactive = flat fitted curve, though single readings scatter; no compound was filed as active;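 also: 0% = full activity with enzyme and -100% = basal without enzyme; dose as in the result columns while the protocol names 77 µM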
Rango release inh: inhibition of RanGTP-driven Rango-importin beta dissociation | Biochemical FRET Rango-importin beta, RanGTP-induced dissociation | Potency, µM (series often up to 46.1 µM), without a hit: top-dose activity change, negative = inhibition | hit rate 0.071% among 340,000 | AID 540253; active means falling FRET ratio curve, often poorly fitted, with flat reads before Ran was added; inconclusive means other falling curves, or compound fluorescence or quenching; inactive means flat or rising ratio curve;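 also: potency is read from the fitted curve at half-maximal effect; % of control where 0% means no effect; nearly all actives have a fitted effect of over 45% in size; -100% = wells without RanGTP and RCC1; the record marks most hits as doubtful in a second field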
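Rango/importin beta premix (0.1/0.25 uM final), PBS + 1 mM DTT + 0.02% Tween-20 + 0.1% BSA; cpd 5 min RT; FRET pre-read; + RanGTP-RCC1 (0.6 uM Ran, 2 mM GTP, 0.2 uM RCC1); 45 min RT; FRET post-read, ex 430, em 486/530 nm.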
* = called active by the depositor; ? = inconclusive; · = not tested or not shown; & = joins results of further samples. Not all compounds are listed; count on the stated rates, not on these rows.

The opening 6 compounds as a preview:
entry | GLA inh pH 4.5 | Rango-impB inh | miR-21 reporter | Rango release inh | Molecule
1 | 0 | -2.7% | -14% | 2% | CCOC(=O)c1c(CN2CCN(C)CC2)n(C)c2cc(Br)c(OC)cc12
2 | 0 | ? | -7% | -2% | Cc1cc(C(=O)NNc2ccc(C)c(C)c2)no1
3 | -6 | · | 20% | · | Cc1ccc(N2C(=O)c3ccccc3C2O)nc1 (stereo not given)
4 | · | -0.7% | · | 1% | O=C(Nc1cccc(S(=O)(=O)N2CCCCC2)c1)c1ccc(N2CCCC2=O)cc1
5 | 3 | 2.3% | -14% | -1% | CC1/C(=C\c2ccc(Cl)cc2)C(=O)C2CC1C2(C)C (stereo not given)
6 | · | -4.1% | -2% | 8% | CCN(CC)CCCN(C)C(=O)Cn1nc(Cc2ccncc2)c2ccccc2c1=O

The list itself, from the start:
entry | GLA inh pH 4.5 | Rango-impB inh | miR-21 reporter | Rango release inh | Molecule
1 | 0 | -2.7% | -14% | 2% | CCOC(=O)c1c(CN2CCN(C)CC2)n(C)c2cc(Br)c(OC)cc12
2 | 0 | ? | -7% | -2% | Cc1cc(C(=O)NNc2ccc(C)c(C)c2)no1
3 | -6 | · | 20% | · | Cc1ccc(N2C(=O)c3ccccc3C2O)nc1 (stereo not given)
4 | · | -0.7% | · | 1% | O=C(Nc1cccc(S(=O)(=O)N2CCCCC2)c1)c1ccc(N2CCCC2=O)cc1
5 | 3 | 2.3% | -14% | -1% | CC1/C(=C\c2ccc(Cl)cc2)C(=O)C2CC1C2(C)C (stereo not given)
6 | · | -4.1% | -2% | 8% | CCN(CC)CCCN(C)C(=O)Cn1nc(Cc2ccncc2)c2ccccc2c1=O
7 | · | 5.4% | · | 26% | Cc1cc(C)cc(NC(=O)CN2CCN(C(=O)c3cccs3)CC2)c1
8 | -1 | ? | -34% | ? | CC(/C=C/c1ccc(N(C)C)cc1)=N\N=C(/N)SC1CC(=O)N(c2ccc(C(=O)O)cc2)C1=O (stereo not given)
9 | · | -1.8% | 0% | -5% | NC(=O)COC(=O)c1cc(=O)[nH]c2ccc(S(=O)(=O)Nc3ccc(F)cc3)cc12
10 | · | -2.8% | 0% | 0% | O=C(O)CSc1nnc(-c2ccc(Cl)cc2Cl)n1-c1ccccc1
11 | 0 | -0.2% | 21% | 5% | CCC(C)(C)n1nnnc1C(c1ccccc1)N1CCN(C2CCCC2)CC1 (stereo not given)
12 | 7 | -1.8% | -3% | -9% | COc1cc(C=O)ccc1Oc1nnnn1-c1ccc(C(N)=O)cc1
13 | -1 | 0.0% | -61% | 2% | CCc1ccc(NC(=O)c2n[nH]c(=O)c3ccccc23)cc1
14 | -4 | 5.0% | -20% | 1% | O=C(CCc1ccccc1)Nc1cc(Cl)ccc1O
15 | 4 | 4.9% | -16% | -8% | CCc1ccccc1NC(=O)c1cnc2n(c1=O)CCS2
16 | -16 | 2.6% | -54% | -1% | O=C(CSc1ccc(F)cc1)Nc1ccc(Br)cc1
17 | 0 | -2.4% | 0% | 0% | O=C(Nc1ccc(N2CCOCC2)cc1)C1CCN(S(=O)(=O)c2ccc3c(c2)OCCO3)CC1
18 | · | 0.0% | -3% | 22% | COc1ccc(OCC(=O)N2CCC(n3nccc3NC(=O)C3CC3)CC2)cc1
19 | -5 | 2.3% | 16% | -9% | CCC(=O)c1ccc(OCC(O)CN2CCN(C(c3ccccc3)c3ccccc3)CC2)cc1 (stereo not given)
20 | · | -2.2% | · | 17% | O=C(CN1C(=O)C2CCCCC2C1=O)Nc1ccc(OC(F)F)c(Cl)c1 (stereo not given)
21 | · | 0.8% | -3% | 2% | COc1ccc(CN(Cc2nc3ccccc3c(=O)[nH]2)C(=O)c2ccco2)cc1
22 | 5 | 0.7% | -10% | -10% | CC(C)N(C)CCOC(=O)c1ccccc1Cl
23 | · | 1.0% | -23% | -2% | O=C(COc1ccc(Br)cc1Br)NNC(=O)c1cccs1
24 | · | ? | 16% | ? | c1cncc(Nc2c3ccccc3nc3ccccc23)c1
25 | 5 | 4.7% | 1% | -17% | COc1ccc(OCCCC(=O)Oc2ccc(OC)cc2)cc1
26 | · | 6.1% | · | -3% | O=C(O)C1=CC2C=C(Cl)C=CC2OC1=O (stereo not given)
27 | · | ? | 0% | -15% | O=C(Cn1c(=O)c2cccn2c2cccnc21)N1CCN(c2ccccc2F)CC1
28 | 6 | 1.5% | -27%&-21% | 1% | O=C(Nc1cccc2cccnc12)c1cccc2ccccc12
29 | 4 | 3.3% | -3% | 0% | Cc1nc(C)c(C(=O)O)c(-c2cccs2)c1C(=O)O
30 | 5 | 3.0% | -4% | 0% | c1ccc(Sc2nc(N3CCCCC3)nc(N3CCCCC3)n2)nc1

Three of the entries above in order of the GLA inh pH 4.5 value, lowest first.
entry | GLA inh pH 4.5 | Rango-impB inh | miR-21 reporter | Rango release inh | Molecule
1 | 0 | -2.7% | -14% | 2% | CCOC(=O)c1c(CN2CCN(C)CC2)n(C)c2cc(Br)c(OC)cc12
29 | 4 | 3.3% | -3% | 0% | Cc1nc(C)c(C(=O)O)c(-c2cccs2)c1C(=O)O
12 | 7 | -1.8% | -3% | -9% | COc1cc(C=O)ccc1Oc1nnnn1-c1ccc(C(N)=O)cc1

Carrying on:
entry | GLA inh pH 4.5 | Rango-impB inh | miR-21 reporter | Rango release inh | Molecule
31 | -3 | 0.0% | 2% | 19% | Cc1cccc(/C=N/NC(=O)c2cccc([N+](=O)[O-])c2)n1
32 | 0 | -1.8% | 1% | -6% | O=C(O)CCC(=O)N(Cc1cccnc1)Cc1cccc(F)c1
33 | 0 | -0.2% | -1% | -8% | CCn1c(-c2ccc(C)cc2)n[nH]c1=S
34 | · | -4.4% | · | 0% | Cc1ccc(S(=O)(=O)N(C)C[C@@H]2Oc3c(NS(C)(=O)=O)cccc3C(=O)N([C@H](C)CO)C[C@@H]2C)cc1
35 | -2&0 | 2.9% | -1% | -14% | COC(=O)[C@@]1(Cc2ccc(F)cc2)[C@H]2c3cc(C(=O)N(C)C)n(CCSCCO)c3C[C@H]2CN1C(=O)c1ccccc1
36 | · | 3.3% | 5% | 1% | Cc1cc(C(=O)N/N=C/c2c(C)[nH]n(-c3ccccc3)c2=O)n[nH]1
37 | 7 | -6.1% | 1% | -4% | CCN(CC)S(=O)(=O)c1ccc(N2CCOCC2)c(NC(=O)c2ccccc2F)c1
38 | · | -1.2% | -5% | 33% | CC1CCCN(C(=O)CCNC(=O)c2ccccc2Cl)C1 (stereo not given)
39 | -9 | 1.6% | 25% | 7% | CCc1cc(Br)ccc1N1C(=O)C2CC=CCC2C1=O (stereo not given)
40 | -9 | 1.9% | 2% | -9% | O=C(O)c1cccc(N2C(=S)N=C(Nc3ccccc3)C23CCCCC3)c1
41 | 5 | ? | -10% | -2% | Cc1oc2nc(SCCCC(=O)NCCCO)nc(N)c2c1C
42 | · | ? | -73% | ? | COc1ccccc1/C=C/C=N/Nc1cccc(C(=O)O)c1
43 | · | 4.5% | 0% | 0% | Cc1ccc2c(c1)C(c1ccccc1)N(C(=O)c1ccc(F)cc1)CC(=O)N2 (stereo not given)
44 | 1 | 0.0% | -6% | -5% | CCCC(NC(=O)CNC(=O)C(C)(C)C)C(=O)O (stereo not given)
45 | -1 | 1.1% | 0% | 19% | COC(=O)Cc1c(C)nc2nc(-c3ccc(OC)cc3)[nH]n2c1=O
46 | · | -1.0% | -3% | -12% | Clc1ccc(Cl)c(OCCCCN2CCCCC2)c1
47 | -3 | -3.8% | -16% | 11% | CC(C)=CC(=O)OCC(=O)Nc1ccc(F)cc1Cl
48 | 2 | -2.4% | -1% | 10% | COCCn1c(SCC(=O)Nc2sccc2C(N)=O)nnc1-c1ccncc1
49 | -7 | -2.0% | 2% | 1% | Cc1ccc(/C=C2\SC(=S)N(CCCC(=O)Nc3nccs3)C2=O)cc1
50 | -1 | 0.9% | 0% | 9% | O=C(O)C1CCN(c2ccc([N+](=O)[O-])cc2[N+](=O)[O-])CC1
51 | 9 | 2.9% | -31% | 2% | C=CCNC(=S)N/N=C/c1ccc(C)c([N+](=O)[O-])c1
52 | 1 | -0.3% | 0% | -5% | O=C(CN=C1NS(=O)(=O)c2ccccc21)OCC(=O)c1cc(F)ccc1F
53 | 7 | 1.9% | 3% | -4% | CC1=CCC2C(=O)N(c3ccc(S(N)(=O)=O)cc3)C(=O)C2C1 (stereo not given)
54 | 1 | 1.6% | 0% | -1% | O=C(CN1CCN(Cc2cccc(Cl)c2)C1=O)NCc1ccccn1
55 | -4 | ? | -38% | ? | CC1C(=O)NN=C1C(=O)N/N=C\c1ccc(O)cc1O (stereo not given)
56 | · | 9.6% | -53% | -2% | O=C(Nc1ccccc1)Nc1ccc2c(c1)CCC2
57 | · | 0.2% | 0% | -2% | CCn1c(C(O)c2cc(OC)ccc2OC)nc2ccccc21 (stereo not given)
58 | -3 | -2.6% | -1% | 9% | COc1ccc(C(=O)NCC(=O)OCC(=O)NC2CCCC2)cc1
59 | · | -0.1% | · | -4% | CN(c1ccc(OCC(=O)Nc2ccc(S(N)(=O)=O)cc2)cc1)S(=O)(=O)c1ccc(F)cc1
60 | -5 | 3.2% | 5% | -7% | CC(Cl)C(=O)c1c[nH]c2ccccc12 (stereo not given)

Looked up one by one from the list above, 2 records:
entry | GLA inh pH 4.5 | Rango-impB inh | miR-21 reporter | Rango release inh | Molecule
43 | · | 4.5% | 0% | 0% | Cc1ccc2c(c1)C(c1ccccc1)N(C(=O)c1ccc(F)cc1)CC(=O)N2 (stereo not given)
40 | -9 | 1.9% | 2% | -9% | O=C(O)c1cccc(N2C(=S)N=C(Nc3ccccc3)C23CCCCC3)c1

Continued.
entry | GLA inh pH 4.5 | Rango-impB inh | miR-21 reporter | Rango release inh | Molecule
61 | · | 2.8% | -3% | 1% | O=[N+]([O-])c1ccccc1S(=O)(=O)N1CCN(c2ccccc2)CC1
62 | -2 | -2.5% | -25% | -8% | O=C(Cn1[nH]c(=O)c2ccccc2c1=O)Nc1ccc2c(c1)CCC2
63 | · | 0.8% | -5% | 33% | CCOc1cc(C(c2c(C)[nH][nH]c2=O)c2c(C)[nH][nH]c2=O)cc(Br)c1OC
64 | · | -2.7% | · | 9% | C/C(=N\NS(=O)(=O)c1ccc(Br)cc1)c1ccc(-n2ccnc2)cc1
65 | · | -2.2% | · | 19% | COc1ccccc1Nc1ccc2c(O)cc(S(=O)(=O)O)cc2c1
66 | -7 | 5.3% | -7% | ? | CN(c1ccc(OCC(=O)OCC(=O)Nc2ccccc2)cc1)S(=O)(=O)c1ccc(F)cc1
67 | 2 | -0.9% | 5% | 11% | Cn1c(=O)c2[nH]c(N=Nc3ccc(N)cc3N)nc2n(C)c1=O
68 | 4 | -1.0% | 7% | -13% | CCOC(=O)C1(CCCc2ccccc2)CCN(C(=O)CCN2CCCCC2=O)CC1
69 | -7 | -1.1% | -1% | 13% | c1coc(CNc2c3c(nc4ncnn24)CCCC3)c1
70 | 1 | ? | -3% | 24% | NC(=O)C1(NC(=O)[C@@H]2CC3(CC(c4cccc(NC(=O)[C@@H]5CCC(=O)N5)c4)=NO3)CN2C(=O)c2cnccn2)CC1 (stereo not given in full)
71 | 1 | -1.4% | -4% | 2% | CCCNS(=O)(=O)c1ccc(CCC(=O)N2CCC(C)CC2)cc1
72 | · | -0.7% | 1% | 6% | CC(=O)CCSc1ncnc2sc(-c3ccccc3)cc12
73 | · | -1.5% | 0% | 0% | CC1=CCC2C(=O)N(c3cccc(C(=O)Nc4ccc(Cl)cc4)c3)C(=O)C2C1 (stereo not given)
